Compound activity as filed in PubChem BioAssay.
ugtP null kill – growth inhibition of S. aureus ugtP deletion strain; S. aureus RN4220 ugtP deletion, OD600 growth, 16 h; some inactives read as strong as hits; growth inhibition, % (concentration not given with the values); actives 0.54% (n = 330,000); AID 1259309;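 active means z-score under -3 and OD600 up to 0.15 on both plates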;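 further: plate controls were untreated wells for no effect and antibiotic for full effect; wells of about 80 µL received 100 nL stock; the first replicate is given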
PrP 5UTR inh – inhibition of PrP 5' UTR reporter expression; inhibition, % (test concentration not listed); actives 0.35% (n = 340,000); cell-based PrP 5' UTR mRNA reporter, plate reader;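 active means every replicate at 50% or more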;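 further: 0 = median of the neutral control wells; tested in H4 reporter cells; numbers are from one replicate; inactives centre near -14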
BJeLR viability – kills HRASV12-expressing BJeLR cells; BJeLR (HRASV12) viability, CellTiter-Glo ATP luminescence, 48 h; reference of the scale not given here; actives 0.17% (n = 300,000); inhibition, % (no concentration beside the values);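 active means replicate mean above 50%; inconclusive means above 50% but judged a plate artefact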;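 further: 50 nL library stock added to about 25 µL; numbers are from one replicate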
Autofluor counter – counter-screen for toxin protease inhibitors: compound fluorescence. compound autofluorescence counterscreen, microsphere flow cytometry; hits give high values. actives 3.1% (n = 360,000). fluorescence intensity (concentration not given with the values). AID 624483;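 active means at least 3 SD above the mean of all compounds, about 16000 in these data; inconclusive means too few beads counted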;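 further: 100 nL of 1 mM stock went into each well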
Mtb hypoxia rep – reduces hypoxia-regulated biosensor signal in M. tuberculosis. M. tuberculosis hypoxia-regulated fluorescent reporter, fluorescence. fluorescence inhibition, % (concentration not given with the values). actives 0.1% (n = 300,000);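 active means 35 to 45% if threefold the growth effect, above 45% if 1.5-fold the growth effect; inactive means the rest, general growth blockers included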;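 further: wells of about 50 µL received 100 nL stock; 0% = vehicle wells and 100% = reference inhibitor wells; whole bacteria with a GFP reporter of the hypoxia response; strong numbers were not always called active; many hits fall short of the cut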
RN4220 kill – S. aureus RN4220 growth inhibition. OD600, 16 h. actives 0.33% (n = 330,000). inhibition, % (test concentration not listed);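 active means z-score of -3 or lower and OD600 up to 0.18 on both plates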;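 further: plate controls were untreated cells for no effect and reference antibiotic for full effect; stock transfer was 100 nL into about 80 µL; one replicate is shown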
Mtb hypoxia rep growth – also measured in Mtb hypoxia rep; calls as there; growth inhibition, %; measured here: M. tuberculosis growth (absorbance);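 0% = vehicle and 100% = reference antibiotic; read after six days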
Starred values were filed as active, the others as inactive; ? = inconclusive; · = not tested or not shown; & = joins results of further samples.

Keys – A = ugtP null kill; B = PrP 5UTR inh; C = BJeLR viability; D = Autofluor counter; E = Mtb hypoxia rep; F = Mtb hypoxia rep growth; G = RN4220 kill
O=C(NCCN1CCOCC1)c1cccc(S(=O)(=O)N(Cc2ccccc2)c2ccccc2)c1
  A: 1	B: -20	C: 15	D: 6183	E: 10	F: -2	G: 6.5

Cc1ccc(NC(=O)COc2ccc3c(c2)OCO3)c(C)c1
  A: 0	B: -48	C: ·	D: 4275	E: 9	F: 3	G: 4.3

O=C(O)Cc1ccc(NC(=O)c2ccc(NC(=O)C3CC3)cc2)cc1
  A: 7	B: -6	C: 3	D: ?	E: 0	F: -4	G: 1.6

O=C(/C=C/c1ccccc1[N+](=O)[O-])N1CCOCC1
  A: 8	B: -40	C: 7	D: 4275	E: 9	F: 3	G: 4.0

Cc1ccc(S(=O)(=O)CC(O)COc2ccc(F)cc2Cl)c(C)c1 (configuration not stated)
  A: 9	B: -8	C: 5	D: 3371	E: 4	F: 13	G: 10

COC(=O)c1ccc(OCCOc2ccccc2)cc1
  A: 10	B: -50	C: -1	D: 2780	E: ·	F: ·	G: 4.5

COc1ccc(N2CCN(C3CCCN(Cc4cccc(C(C)=O)c4)C3)CC2)cc1 (configuration not stated)
  A: 5	B: -11	C: 2	D: 4149	E: -4	F: 0	G: 1.1

COc1ccc(C(C)=O)cc1COC(=O)c1ccc(S(=O)(=O)N(C)C)cc1
  A: 7	B: -8	C: -5	D: ?	E: -3	F: 4	G: 3.3

CCOC(=O)CC(SP1(=S)OCC2(CC=CCC2)CO1)C(=O)OCC (configuration not stated)
  A: 5	B: 1	C: ·	D: 3778	E: -6	F: 19	G: 1.5

CCOC(=O)c1cc(-c2ccccc2C)n(CC2CC(c3ccc(OC)cc3)=NO2)n1 (configuration not stated)
  A: 3	B: -17	C: ·	D: 4058	E: 0	F: 12	G: -2.3

CCOC(=O)c1c(NS(=O)(=O)c2ccc(Br)cc2)sc2c1CCC2
  A: 98*	B: -2	C: 7	D: 3091	E: ·	F: ·	G: 112*

CCc1ccccc1NC(=S)NCc1cccn1C
  A: 2	B: -11	C: -6	D: 2552	E: 6	F: 0	G: 2.6

CCOC(=O)c1[nH]c2ccccc2c1NC(=O)c1ccc(S(=O)(=O)N2CCCC2)cc1
  A: 12	B: -16	C: 0	D: 5875	E: 2	F: 2	G: 18

COCCn1c(C)cc(C(=O)CSc2n[nH]c(N)n2)c1C
  A: -5	B: -24	C: -14	D: 3027	E: 15	F: 12	G: 4.9

Cn1c(=O)c2c(n(Cc3ccccc3)c1=O)NC(=O)C2CC(=O)NCc1cccc(Cl)c1 (configuration not stated)
  A: 4	B: -4	C: -3	D: 3618	E: ·	F: ·	G: 2.0

CCOc1ccc(NC(=O)COC(=O)C2CCC(=O)N2)c([N+](=O)[O-])c1 (configuration not stated)
  A: 11	B: -11	C: ·	D: ?	E: 9	F: -6	G: 4.9

CC(=O)C(=NNc1ccc(Br)cc1)Sc1cccc2cccnc12
  A: -5	B: ·	C: ·	D: ·	E: 5	F: 5	G: -1.9

COc1cccc(C(=O)Nc2ccc(S(=O)(=O)N3CCN(C)CC3)cc2)c1
  A: -11	B: -18	C: 6	D: 3250	E: 3	F: 7	G: 3.4

CCOc1ccc2nc(SCc3ccc(F)cc3)sc2c1
  A: 79	B: -18	C: 4	D: 1817	E: 12	F: 7	G: 6.0

CC(C)CN1CCC(CN(C)Cc2nc(-c3cnccn3)no2)CC1
  A: -3	B: -14	C: -9	D: 3638	E: 6	F: 0	G: 4.0

O=C(Nc1ccccc1Cl)NC1(C(=O)N2CCCCC2)CCCCC1
  A: 4	B: -8	C: 3	D: ?	E: 8	F: -2	G: 4.3

COc1cc(NC(=O)c2ccc3c(c2)OCCO3)ccc1NC(=O)c1ccccc1Cl
  A: 0	B: -21	C: 9	D: 5310	E: -4	F: 1	G: 11

COc1ccc(/C=N/N(C(C)=O)c2nc(-c3ccc(C)cc3)cs2)cc1
  A: ·	B: -40	C: -4	D: 8845	E: ·	F: ·	G: ·

Fc1ccc(SCCc2ccccn2)cc1
  A: 4&7	B: -22&-26	C: -2&13	D: 4239&4497	E: 11&9	F: 6&5	G: 3.7&4.1

CCCCNC(=O)[C@H]1C[C@H]1[C@@H](O)[C@H](CO)NC(=O)[C@H](CC(C)C)NC(=O)OC(C)(C)C
  A: ·	B: -17	C: 5	D: 3556	E: ·	F: ·	G: ·

Cn1c(SCC(=O)c2ccc(O)c(O)c2)nnc1-c1cccs1
  A: 8	B: -9	C: -3	D: 4883	E: 4	F: -5	G: 5.4

CC(=O)Nc1nc2n(n1)C(c1ccccc1)C=C(c1ccccc1)N2 (configuration not stated)
  A: 0	B: -36	C: 4	D: 10691	E: 8	F: 3	G: 4.3

O=S(=O)(NC1CCCCC1N1CCN(c2ccccc2F)CC1)c1ccccc1 (configuration not stated)
  A: 10	B: -30	C: -6	D: 4511	E: 9	F: -4	G: 2.0

CC(=O)N1CCn2c3c(c(=O)c4cc(C)ccc42)CCC31 (configuration not stated)
  A: -3	B: -17	C: -4	D: 2638	E: 8	F: 9	G: 5.6

CC(NC(=O)c1ccc2c(=O)n3c(nc2c1)CCC3)c1ccc(S(N)(=O)=O)cc1 (configuration not stated)
  A: 1	B: -16	C: 6	D: 5232	E: -1	F: 3	G: 1.9

O=C(OCCN1CCCCC1)c1ccc(O)cc1
  A: 3	B: -25	C: -8	D: 21154*	E: -4	F: 5	G: 1.1

Cc1ccc(S(=O)(=O)Nc2ccc(N3CCCCC3)cc2)cc1
  A: 0	B: -6	C: -1	D: 5433	E: 6	F: 4	G: 6.9

COc1ccc2c(Cl)c(C(=O)NN)sc2c1
  A: 7	B: -10	C: -3	D: 5563	E: 7	F: 8	G: 3.6

O=C(Oc1ccc(C(=S)N2CCC(O)CC2)cc1)c1ccc(Cl)cc1
  A: ·	B: -39	C: -3	D: 4272	E: ·	F: ·	G: ·

CO[C@H]1O[C@H](CBr)[C@@H](OC(=O)c2ccccc2)[C@H](O)[C@H]1O
  A: 5	B: -12	C: 0	D: 3006	E: 15	F: 11	G: 3.4

CN1CCN(Cc2cn[nH]c2-c2ccc(F)cc2F)[C@@H](c2ccccc2)C1
  A: ·	B: -1	C: 13	D: 3611	E: ·	F: ·	G: ·

CC(C)CCNC(=O)c1cccc(C(=O)NCCC(C)C)c1
  A: 2	B: -27	C: 10	D: 3883	E: ·	F: ·	G: 1.0

COc1cc(-c2nnc(CSc3nnc(Nc4ccc(C(C)C)cc4)s3)o2)cc(OC)c1OC
  A: -12	B: -21	C: -3	D: 2281	E: -7	F: 0	G: 0.7

CS/C(=C\C(=O)c1ccco1)Nc1ccccc1Cl
  A: 6	B: -18	C: -13	D: 4567	E: 17	F: 8	G: 3.3

Cc1cc(C)c(S(=O)(=O)NCc2cccnc2)cc1C
  A: 11	B: -20	C: -3	D: ·	E: 5	F: -4	G: 5.3

CC(C)C(C)NC(=O)CN1C(=O)NC2(CCc3ccccc3C2)C1=O (configuration not stated)
  A: 3	B: -17	C: 2	D: 3413	E: 3	F: -3	G: 1.9

CCn1c(=O)cc(OCC(=O)N2CCN(c3ccc(F)cc3)CC2)c2ccccc21
  A: -11	B: -5	C: 0	D: 2597	E: 6	F: 5	G: -2.0

COc1cccc(NC(=O)CSc2nnc3ccc(-c4ccncc4)nn23)c1
  A: -1	B: -12	C: 2	D: ·	E: 6	F: 0	G: -1.3

O=C(CNC(=O)c1ccco1)NN=Cc1ccccc1[N+](=O)[O-]
  A: 7	B: ·	C: ·	D: ·	E: 2	F: 5	G: -1.2

C/C(=N\NC(=O)Cn1nc(C)c([N+](=O)[O-])c1C)c1ccc(Cl)s1
  A: ·	B: -20	C: -4	D: 3607	E: ·	F: ·	G: ·

Cc1ccc(C(=O)N2CCCC(C(=O)c3ccc(Oc4ccccc4)cc3)C2)cn1 (configuration not stated)
  A: -4	B: -35	C: 0	D: 4455	E: 0	F: 5	G: -2.4

COC(=O)c1ccc(OC(=O)C2CC(=O)N(c3ccc(C)cc3C)C2)cc1 (configuration not stated)
  A: -2	B: -17	C: -16	D: 10939	E: -4	F: -4	G: 0.6

CC(=O)c1ccc2c3c(cc(C)c2c1)CCCC3
  A: 28	B: -18	C: ·	D: 2902	E: 21	F: 8	G: 8.2

CCOC(=O)C1C(=O)NC(N2CCOCC2)=NC1C(C)C (configuration not stated)
  A: -3	B: 1	C: 2	D: 9420	E: 2	F: 8	G: -1.5

O=C(N/N=C/c1ccco1)c1cc(-c2cccc3ccccc23)n[nH]1
  A: ·	B: -24	C: -5	D: 3042	E: ·	F: ·	G: ·

Quoted at random: 4 compounds from above
Keys – A = ugtP null kill; B = PrP 5UTR inh; C = BJeLR viability; D = Autofluor counter; E = Mtb hypoxia rep; F = Mtb hypoxia rep growth; G = RN4220 kill
O=C(CNC(=O)c1ccco1)NN=Cc1ccccc1[N+](=O)[O-]
  A: 7	B: ·	C: ·	D: ·	E: 2	F: 5	G: -1.2

COc1ccc2c(Cl)c(C(=O)NN)sc2c1
  A: 7	B: -10	C: -3	D: 5563	E: 7	F: 8	G: 3.6

CCOC(=O)c1cc(-c2ccccc2C)n(CC2CC(c3ccc(OC)cc3)=NO2)n1 (configuration not stated)
  A: 3	B: -17	C: ·	D: 4058	E: 0	F: 12	G: -2.3

Cc1cc(C)c(S(=O)(=O)NCc2cccnc2)cc1C
  A: 11	B: -20	C: -3	D: ·	E: 5	F: -4	G: 5.3

Other compounds follow:
Keys – A = ugtP null kill; B = PrP 5UTR inh; C = BJeLR viability; D = Autofluor counter; E = Mtb hypoxia rep; F = Mtb hypoxia rep growth; G = RN4220 kill
Nc1nonc1-n1nnc(C(=O)N/N=C/c2c[nH]c3ccccc23)c1-c1ccccc1
  A: ·	B: -15	C: 3	D: 6213	E: ·	F: ·	G: ·

O=C(NCCC1CCCCN1S(=O)(=O)c1cccs1)C(=O)Nc1ccc(F)cc1F (configuration not stated)
  A: 4	B: -12	C: 25	D: ?	E: 3	F: 1	G: 1.1

Cc1ccc(NC(=O)c2c(Cl)nc3ccccn23)cc1
  A: -21	B: -89	C: -6	D: 3625	E: 1	F: 5	G: 4.8

C=CCN1C(=O)/C(=C/c2ccc(OCC(=O)O)cc2)S/C1=N/c1nccs1
  A: ·	B: -5	C: -12	D: 2076	E: ·	F: ·	G: ·

Cc1csc(=O)n1CC(=O)OCC(=O)Nc1cc(Cl)ccc1[N+](=O)[O-]
  A: 10	B: -16	C: -6	D: 3813	E: 6	F: 5	G: 7.9

CCOc1cc(C(=O)O)cc(Cl)c1OC
  A: 7	B: -2	C: ·	D: 3603	E: ·	F: ·	G: -2.1

CC(=Nc1ccccc1C)C1=C(O)CSC1=O
  A: 19	B: -4	C: -4	D: 7592	E: 2	F: 2	G: 5.6

CCOc1ccccc1C(=O)Nc1nccs1
  A: 4	B: -11	C: 4	D: 3460	E: ·	F: ·	G: 2.1

CCN(CC)C(=O)CN(c1cccc(OC)c1)S(=O)(=O)c1ccc(C)cc1
  A: -2	B: -18	C: 7	D: 3381	E: 4	F: 1	G: 3.8

O=C(COc1ccc2c(c1)OCO2)Nc1ccccc1C(F)(F)F
  A: 11	B: -63	C: 2	D: 2319	E: -14	F: -2	G: -0.1

CC1CCCC(=NNc2ccc([N+](=O)[O-])cc2[N+](=O)[O-])C1 (configuration not stated)
  A: 0	B: ·	C: ·	D: ·	E: 15	F: 6	G: -11

CCOC(=O)c1cccnc1SC(CC)C(=O)N1CCOCC1 (configuration not stated)
  A: 15	B: 1	C: 1	D: 11257	E: 6	F: -3	G: 5.0

Cc1cc(C(=O)C(=O)N(C)C)c(C)n1-c1ccc(Cl)c(Cl)c1
  A: 9	B: -15	C: 8	D: 2588	E: 5	F: 8	G: 1.9

CNC(=S)N1CC2CC(C1)c1cccc(=O)n1C2 (configuration not stated)
  A: -1	B: -10	C: -4	D: 3188	E: 5	F: 3	G: 0.2

CCCCCC(=O)c1c(C)[nH]c(C(=O)OCC)c1C
  A: -5	B: -21	C: 10	D: 2333	E: -3	F: 7	G: 0.4

CN1CCN(C(CNS(=O)(=O)c2ccc(Cl)cc2)c2cccnc2)CC1 (configuration not stated)
  A: 13	B: -9	C: 1	D: 7111	E: 11	F: 6	G: 4.3

Cc1cccc(N2CC(C(=O)Nc3ccc(S(=O)(=O)N4CCCCC4)cc3)CC2=O)c1C (configuration not stated)
  A: -5	B: -21	C: -5	D: 3701	E: 9	F: 1	G: 1.1

Compounds were not picked by outcome; 4% or so of the library scored in one or more.
